Source: PubChem BioAssay
Rango release inh: qHTS Assay for Inhibitors of RanGTP induced Rango (Ran-regulated importin-beta cargo) - Importin beta complex dissociation; Potency, µM (highest dose often 46.1 µM), without a hit: at the highest dose activity change, negative = inhibition; Biochemical FRET Rango-importin beta, RanGTP-induced dissociation; Snurportin-1 (Homo sapiens) + GTP-binding nuclear protein Ran (Homo sapiens) + Importin …; actives 0.071% (n = 340,000); active means falling FRET ratio curve, often poorly fitted, with flat reads before Ran was added; inconclusive means other falling curves, or compound fluorescence or quenching; inactive means flat or rising ratio curve;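 further: potency means the concentration at half of the fitted maximal effect; % of control where 0% means no effect; nearly all actives have a fitted effect of over 45% in size; -100% = wells without RanGTP and RCC1; the record marks most hits as doubtful in a second field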
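Rango FRET biosensor (snurportin-1 IBB flanked by N-terminal EYFP and C-terminal CFP10) at 0.1 uM, with 0.25 uM importin beta in PBS, 1mM DTT, 0.02% Tween-20, 0.1% BSA. 0.6 uM Ran, 2mM GTP and 0.2 uM RCC1 were then added for 45 min at room temperature. Inhibition read as loss of FRET rise.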
miR-21 reporter: qHTS Assay for Modulators of miRNAs and/orActivators of miR-21. Potency, µM (series often up to 38.3 µM), for the others: at the highest dose reporter change, positive = more light. HeLa miR-21 FLuc reporter, luciferase, 48 h. 340,000 tested, under 10 active; active = well fitted rising curve with a large enough effect; inconclusive = small, poorly fitted or top-dose-only effect; inactive = no such curve, though single readings can be large or run the other way;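 further: % of control where 0% means no effect; miR-21 action dims this reporter so a rising signal means less miR-21 action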
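HeLa cells endogenously expressing miR-21, stably carrying CMV-driven firefly luciferase with a downstream miR-21 binding site, 2000 cells/well. Titrations up to approximately 40 uM, 48 hours; luciferase luminescence read.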
Rango-impB inh: qHTS Assay for Inhibitors of Rango (Ran-regulated importin-beta cargo) - Importin beta complex formation. actives 0.031% (n = 340,000). Importin subunit beta-1 (Homo sapiens), Q14974. Rango CFP/YFP FRET sensor + importin beta, 45 min. AID 540263, 2011. Potency, µM (doses to about 92.2 µM), for inactives: at the top dose inhibition of complex formation; active = rising FRET ratio curve, often small or poorly fitted; inconclusive = mostly compound fluorescence or quenching in the first reads; inactive = flat curves in all reads;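 further: potency means the concentration at half of the fitted maximal effect; 0% = DMSO wells and 100% = buffer wells lacking importin beta; nearly all actives have a fitted effect of over 15% in size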
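Inhibition scored from the CFP 486 nm/YFP 530 nm FRET ratio 45 min after adding 0.125 microM importin beta to 50 nM Rango biosensor preincubated 5 min with compound (room temperature, PBS with DTT, Tween-20, BSA). No-importin wells as positive control.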
GLA inh pH 4.5: qHTS Assay for Inhibitors of Human alpha-Galactosidase at pH 4.5; activity change, negative = inhibition, % at 105 µM; purified enzyme, 4-MU-alpha-Gal fluorescence, pH 4.5; 230,000 tested, under 10 active; Alpha-galactosidase A (Homo sapiens), P06280; AID 1467, 2008; inconclusive = small, poorly fitted or top-dose-only inhibition, or a rising curve; inactive = flat fitted curve, though single readings scatter; no compound was filed as active;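 further: 0% = full activity with enzyme and -100% = basal without enzyme; dose as in the result columns while the protocol names 77 µM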
Target sequence (P06280 whole entry, looked up): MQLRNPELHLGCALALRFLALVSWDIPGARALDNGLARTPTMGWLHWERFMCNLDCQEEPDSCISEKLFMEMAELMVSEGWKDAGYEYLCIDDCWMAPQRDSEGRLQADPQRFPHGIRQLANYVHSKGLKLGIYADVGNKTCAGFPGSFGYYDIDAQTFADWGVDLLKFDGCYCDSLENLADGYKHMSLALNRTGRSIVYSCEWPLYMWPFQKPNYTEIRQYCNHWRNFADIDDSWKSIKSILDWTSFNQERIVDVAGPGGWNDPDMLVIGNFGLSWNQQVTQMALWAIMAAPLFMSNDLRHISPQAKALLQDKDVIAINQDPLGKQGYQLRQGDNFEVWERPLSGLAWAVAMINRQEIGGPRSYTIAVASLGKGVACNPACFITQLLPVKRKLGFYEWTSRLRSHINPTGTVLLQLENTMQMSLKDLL
Active calls of the source: *; ? = inconclusive; . = not tested or not shown; & = joins results of further samples.

SMILES	Rango release inh	miR-21 reporter	Rango-impB inh	GLA inh pH 4.5
O=C1c2ccccc2C(=O)N1c1ccc(Cc2ccncc2)cc1	-10%	6%	-0.1%	0
Cc1ccccc1N1CN(Cc2ccco2)CNC1=S	-6%	-4%	0.7%	5
O=C(Nc1ccc(F)cc1)NC1CCCCCCC1	-11%	-36%	-2.2%	.
CCOC(=O)N1CCC(NC(=O)C(NC(=O)C2CCCCC2)C(C)C)CC1 (stereo not given)	.	-2%	.	3
COC(=O)/C(=C\Nc1ccccc1)NC(=O)c1ccc(Cl)cc1Cl	4%	-8%	-0.3%	-5
COc1ccc(OC)c(N/C(N)=N/c2nc(C)cc(C)n2)c1	13%	8%	0.9%	.
O=S(=O)(Nc1cc(F)ccc1F)c1cccc2nsnc12	16%	-7%	0.3%	.
COc1ccc(NC(=O)C(c2ccccc2)N(C)C(=O)c2ccc(=O)[nH]c2)cc1 (stereo not given)	7%	-6%	2.5%	-3
CC(C)C(=O)N1CCN(C2=NS(=O)(=O)c3ccccc32)CC1	5%	-1%	-3.7%	-6
Cc1cc(C)n(S(=O)(=O)c2ccc(C)c(C)c2C)n1	?	-3%	0.3%	3
CC(=O)N(O)CCCCCNC(=O)CCC(=O)N(O)CCCCCNC(=O)CCC(=O)N(O)CCCCCNC(=O)CCC(=O)O	13%	.	-5.0%	.
Cc1cccc(-n2c(Cn3nc(C)c([N+](=O)[O-])c3C)n[nH]c2=S)c1	1%	1%	6.3%	2
Cc1ccc(Sc2cc(N3CCOCC3)nc(-c3ccccc3)n2)cc1	1%	-9%	-1.0%	-3
CCOc1ccccc1NC(=O)N1CCCC1C(=O)Nc1ccc(-n2cnnn2)c(C)c1 (stereo not given)	12%	-8%	0.0%	-5
COc1ccc(NC(=O)c2ccc(N3C(=O)C4CC=C(Cl)CC4C3=O)cc2)cc1 (stereo not given)	-9%	7%	-1.9%	.
CSc1ccc(S(=O)(=O)NCCCOC(C)C)cc1	4%	1%	-4.4%	1
Cc1cc(C)c(CN2CCN(Cc3ccc(C)o3)C(CCO)C2)c(-n2cccn2)c1 (stereo not given)	-10%	20%	2.5%	9
C=CCC1NS(=O)(=O)OC(CCc2ccccc2)C1O (stereo not given)	2%	1%	-0.2%	.
COCCn1c(C)cc(C(=O)Cn2nc(C(=O)O)c3ccccc3c2=O)c1C	8%	-1%	0.4%	-5
Cc1c(N=Cc2ccc(Br)s2)cccc1[N+](=O)[O-]	-6%	-7%	0.9%	?
C=CCn1c(Cc2cccs2)nnc1SC/C=C/c1ccccc1	10%	11%	-0.2%	0
COc1ccc(NC(=O)CSc2n[nH]c(-c3ccncc3)n2)c([N+](=O)[O-])c1	-4%	0%	-3.2%	.
Cc1ccc(CCNC(=O)c2ccc(CS(=O)(=O)Cc3ccc(F)cc3)o2)cc1	-3%	0%	8.3%	.
Cc1ccc(NS(=O)(=O)c2cc(C(=O)N3CCOCC3)ccc2C)cc1	0%	-5%	-2.0%	0
COC(=O)NCC(c1cccnc1)N1CCN(c2ccccc2)CC1 (stereo not given)	-4%	-7%	-0.8%	-7
CCn1nc(C)cc1C(=O)N1CCCC(CCC(=O)NCc2ccccc2F)C1 (stereo not given)	-4%	-3%	0.0%	2
CCCCc1ccc(S(=O)(=O)N2CCN(C(=O)c3ccco3)CC2)cc1	0%	0%	-0.2%	-10
O=C(CCC(=O)N1CCN(c2ccccc2)CC1)Nc1nnc(C2CCCCC2)s1	1%	-3%	0.4%	0
O=C(Cc1c[nH]c2ccccc12)Nc1ccc(N2CCOCC2)cc1	-7%	-9%	1.7%	3
CCCNC(=O)C(=O)Nc1ccc(N(C)C)cc1	-7%	-49%	0.8%	1
Cc1ccccc1OCC(=O)Nc1ccccc1-c1ccccc1NC(=O)COc1ccccc1C	31%	12%	-2.2%	-5
COC(=O)c1ccc(COc2cccc(C)c2C)cc1	-7%	-41%	0.2%	1
C#CCOCCOCCOCCNc1nc(N2CCN(C(=O)Cn3cc(CCCN=C(N)N)nn3)CC2)nc(N2CCN(C(=O)[C@H]([C@@H](C)CC)n3cc(CCCCN)nn3)CC2)n1	2%	.	-0.4%	.
O=C(Nc1ccccc1)c1cccc(N2C(=O)C3C4CC(C(Br)C4Br)C3C2=O)c1 (stereo not given)	1%	7%	0.7%	.
CC(C)(C)OC(=O)N1C[C@H](O)C[C@H]1C(=O)OCC(=O)c1ccc([N+](=O)[O-])cc1	9%	-1%	?	.
Cc1nn(CC(=O)NCc2ccc(Cl)cc2)c(C)c1[N+](=O)[O-]	11%	-9%	1.7%	5
O=C(c1cccc(N2C(=O)C3C4C=CC(C4)C3C2=O)c1)N1CCN(c2ccccc2F)CC1 (stereo not given)	?	9%	3.8%	.
CCOC(=O)c1ccccc1N/C=C1\CCCCC1=O	8%	-10%	0.2%	-4
C=CCn1c(SCC(=O)c2c(N)n(C)c(=O)n(C)c2=O)nnc1-c1ccccc1F	16%	-7%	-1.1%	4
Cc1nc2ccccc2c2oc(C(=O)Nc3ccc4c(c3)OCCO4)cc12	-12%	-2%	4.1%	1
CC(=O)C1=C(O)C(=O)N(CCN(C)C)C1c1ccc(Cl)cc1 (stereo not given)	18%	-1%	?	0
O=S(=O)(c1ccccc1)c1nc(-c2cccs2)oc1NCc1cccnc1	-3%	.	-1.1%	.
COc1ccc(-c2noc3c2-c2nc(-c4cccc(C)c4)sc2CC3)cc1	16%	2%	-0.6%	.
O=C(NC1CCCC1)c1ccc(CSc2nc3ccncc3n2Cc2ccc(F)cc2)cc1	-2%	-5%&-20%	-0.4%	2
N#CC(c1ccccc1)N(CCCCl)C(=O)c1ccc(Br)cc1 (stereo not given)	8%	-4%	-1.4%	-5

6 structures out of the list, arranged by length of the SMILES, rising:
SMILES	Rango release inh	miR-21 reporter	Rango-impB inh	GLA inh pH 4.5
CCOC(=O)c1ccccc1N/C=C1\CCCCC1=O	8%	-10%	0.2%	-4
O=S(=O)(c1ccccc1)c1nc(-c2cccs2)oc1NCc1cccnc1	-3%	.	-1.1%	.
COc1ccc(-c2noc3c2-c2nc(-c4cccc(C)c4)sc2CC3)cc1	16%	2%	-0.6%	.
O=C(NC1CCCC1)c1ccc(CSc2nc3ccncc3n2Cc2ccc(F)cc2)cc1	-2%	-5%&-20%	-0.4%	2
C=CCn1c(SCC(=O)c2c(N)n(C)c(=O)n(C)c2=O)nnc1-c1ccccc1F	16%	-7%	-1.1%	4
CC(C)(C)OC(=O)N1C[C@H](O)C[C@H]1C(=O)OCC(=O)c1ccc([N+](=O)[O-])cc1	9%	-1%	?	.

More structures
SMILES	Rango release inh	miR-21 reporter	Rango-impB inh	GLA inh pH 4.5
COc1cccc2sc(Nc3nc(C)c(C(C)=O)s3)nc12	?	-25%	?	-1
COCCN(C(=O)COC(=O)c1ccccc1Cc1ccccc1)c1c(N)n(Cc2ccccc2)c(=O)[nH]c1=O	0%	.	4.1%	.
Cc1ccc(Cn2nc(C)cc2C(=O)Nc2ccccc2Cl)cc1	-7%	-105%	-5.6%	.
CNC(=S)N(CCc1c(C)[nH]c2ccc(F)cc12)Cc1cccnc1	?	-10%	0.6%	.
CCOc1ccc(C2NC(=S)NC3=C2CCc2ccccc23)cc1 (stereo not given)	13%	-18%	-3.7%	-7
CC1CCCN(S(=O)(=O)c2ccc3c(c2)CCN3C(=O)C2CCC2)C1 (stereo not given)	-17%	-3%	0.3%	2
O=C(O)c1ccc(OCCn2ccnc2)cc1	2%	-2%	9.1%	.
Cc1cc([N+](=O)[O-])nn1CC(=O)N/N=C/c1ccccc1O	26%	-1%	-0.1%	6
Cc1c(C)c2ccc(OC(C)C(=O)N3C[C@H]4C[C@@H](C3)c3cccc(=O)n3C4)c(C)c2oc1=O (stereo not given in full)	1%	1%	-1.4%	.
Cc1cccc(NC(=O)c2ccccn2)c1C	-11%	-46%	4.5%	-2
Cc1ccccc1Sc1c(C#N)c(-c2ccccc2)nn1C	-9%	-1%	-6.1%	-6
Cc1sc2nc(SCC(=O)N(C)Cc3ccccc3)n(-c3ccccc3)c(=O)c2c1C	11%	-3%	0.5%	-3
CCOc1ccc2nc(N3C(=O)/C(=C/c4ccc(Cl)cc4)NC3=S)sc2c1	1%	-48%	1.4%	-18
COc1cc2c(cc1OC)CN(C1CCCN(Cc3cc(Cl)ccc3O)C1)CC2 (stereo not given)	-16%	3%	?	.
CCN(C(=O)COC(=O)c1ccc(C)c(S(=O)(=O)N2CCCCC2)c1)C1CCS(=O)(=O)C1 (stereo not given)	-19%	.	-3.4%	.
Cc1sc2nc(SCC(=O)N(CCO)CCO)nc(N)c2c1C	5%	-1%	0.0%	13
CCC1CCCCN1S(=O)(=O)c1ccc([N+](=O)[O-])cc1 (stereo not given)	10%	-2%	-1.9%	.
COc1ccc2c(c1)c(=O)oc1cc(OCC(=O)NC3CCCCC3)ccc12	3%	-3%	-4.4%	-8
CCCCNC(C(=O)Nc1ccc([N+](=O)[O-])cc1Br)c1ccccc1 (stereo not given)	2%	8%	-1.3%	-6
CC(=O)Nc1ccc(N2C(=O)CSC2c2cccc(Br)c2)cc1 (stereo not given)	-10%	-3%	-3.7%	.
c1ccc(CN2CCC3(CC2)Nc2ccccc2S3)cc1	-6%	-15%	1.3%	-18
C=CCN1C(=O)N(/C=C/C)c2cccc3cccc1c23	-11%	-10%	-0.7%	-2
Cc1ccc(C)c(N2CC(C(=O)OCC(=O)Nc3cc(C)on3)CC2=O)c1 (stereo not given)	-6%	6%	0.3%	.
COc1ccc(CCN2C(=NC(=O)CCC(=O)O)SC3CS(=O)(=O)CC32)cc1 (stereo not given)	-3%	-1%	1.4%	2
COc1ccc(C(=O)NCc2ccncc2)cc1S(=O)(=O)NCc1ccc(Cl)cc1	0%	.	0.1%	.
O=C(N/C(=C\c1ccco1)C(=O)N1CCCC(CO)C1)c1ccccc1 (stereo not given)	-12%	-2%	2.4%	.
NC(=O)c1ccc(NC(=O)COC(=O)C2COc3ccccc3O2)cc1 (stereo not given)	-16%	.	-0.6%	.
C=CCNC(=S)N/N=C(\C)c1ccccn1	21%	?	3.8%	0
CCOC(=O)c1cn(-c2ccc(F)c(F)c2F)c2c(F)c(F)c(F)cc2c1=O	5%	-1%	-1.3%	-18
Cc1noc(NS(=O)(=O)c2ccc(NC(=O)COc3ccc(C#N)cc3)cc2)c1C	13%	.	0.9%	.
O=C(COC(=O)c1cccc(NS(=O)(=O)c2ccc(F)c(F)c2)c1)NC(=O)NC1CCCC1	-33%	-1%	?	3
Cc1cc(NC(=O)CSc2nc(=O)n3cc(Cl)ccc3n2)no1	-1%	.	-1.9%	.
CCOC(=O)c1sc2nc(CN3CCCCC3)nc(Cl)c2c1C	9%	-6%	0.2%	0
CCn1nnc(-c2ccc(N)cc2)n1	6%	-19%	-2.6%	0
Cc1ccc(C(=O)c2ccccc2C(=O)OCC(=O)Nc2cccc([N+](=O)[O-])c2)cc1	-2%	3%	-6.1%	-14
Cc1ccc(S(=O)(=O)Nc2ccc3nc(-c4cccn4C)[nH]c3c2)cc1	12%	8%	0.0%	-2
C=CCNc1nc(-c2ccc(OC)cc2OC)cs1	-14%	-48%	-1.2%	-8
CC1C/C(=N/NC(=O)c2ccc(CSc3nc4ccccc4[nH]3)cc2)CC(C)(C)C1 (stereo not given)	2%	-16%	0.5%	2
COc1ccc(S(=O)(=O)N2CCCCCC2)cc1C(=O)OC(C)C(N)=O (stereo not given)	2%	-4%	2.2%	12

This is a subset. The share of hits here may be higher or lower than overall.
